# Assay outcomes deposited in PubChem BioAssay by several laboratories.
# Calb FLC = C. albicans growth modulation with fluconazole | AID 1979 | growth inhibition, % (concentration not given with the values) | 0.57% of 300,000 active | C. albicans CaCi-2 (fluconazole-resistant clinical isolate) + fluconazole, Alamar Blue growth, 48 h;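 active = most replicates above 75%; inconclusive = exactly half above 75%; inactive = most below 75%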;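 also: all wells also contain fluconazole at 8 µg/ml as a sub-toxic cotreatment; 0% = median of DMSO wells and 100% = median of geldanamycin control wells; wells of about 8 µL received 7.5 nL stock; the first replicate is given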
# B2AR ag = human beta-2 adrenergic receptor agonism by FAP. P07550. Am2.2-beta2AR cells, FAP receptor internalization, flow cytometry; reference of the scale not given here. response, % (no concentration beside the values). 0.43% of 340,000 active;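 active = response above a set limit, near 3 SD of response in nonfluorescent compounds, cut at about 42% in these data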;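 also: stock transfer was 100 nL into about 11 µL; a reference agonist was the positive control; negative values mostly stem from fluorescent compounds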
# Target sequence (P07550 whole entry, looked up): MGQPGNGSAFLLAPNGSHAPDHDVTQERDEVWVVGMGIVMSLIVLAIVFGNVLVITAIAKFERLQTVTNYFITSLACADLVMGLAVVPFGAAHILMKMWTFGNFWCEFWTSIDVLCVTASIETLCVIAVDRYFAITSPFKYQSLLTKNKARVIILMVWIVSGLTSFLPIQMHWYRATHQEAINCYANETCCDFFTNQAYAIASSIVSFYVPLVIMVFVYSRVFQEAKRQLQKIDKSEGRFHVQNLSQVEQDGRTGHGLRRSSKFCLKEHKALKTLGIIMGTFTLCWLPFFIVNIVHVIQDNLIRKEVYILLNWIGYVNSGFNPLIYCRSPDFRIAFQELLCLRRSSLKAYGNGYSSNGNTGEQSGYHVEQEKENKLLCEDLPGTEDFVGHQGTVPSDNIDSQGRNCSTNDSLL
# Vif A3G = HIV-1 Vif–A3G interaction blockers – biochemical, TR-FRET, GST-Vif 1-94, biotin-A3G peptide, dose response retest, primary screen (AID 1117319) | 0.57% of 260,000 active | inhibition, %, or IC50 in µM where a hit was titrated | TR-FRET GST-Vif / biotin-A3G peptide binding; higher % means a stronger effect; test concentration not given here; strong numbers were not always called active;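 active = above the screen mean plus three standard deviations and confirmed in dose response; inconclusive = results disagree or hit not tested in dose response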;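 also: Vif residues 1-94 fused to GST binding biotinylated APOBEC3G peptide 110-148; 0% = full assay without inhibitor and 100% = GST in place of GST-Vif; retest series ran down from 100 µM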
# ALR inh = blocks human ALR sulfhydryl oxidase activity | inhibition, % (no concentration beside the values) | P55789 | 3.8% of 290,000 active | purified ALR, DTT oxidation, H2O2 HRP-luminol luminescence | AID 485317;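 active = mean and each replicate at 75% or more; inconclusive = only one of the two met; inactive = neither met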;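 also: stock transfer was 7.5 nL into about 7.5 µL; 0% = neutral wells and 100% = wells with inactivated enzyme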
# Target sequence (P55789 whole entry, looked up): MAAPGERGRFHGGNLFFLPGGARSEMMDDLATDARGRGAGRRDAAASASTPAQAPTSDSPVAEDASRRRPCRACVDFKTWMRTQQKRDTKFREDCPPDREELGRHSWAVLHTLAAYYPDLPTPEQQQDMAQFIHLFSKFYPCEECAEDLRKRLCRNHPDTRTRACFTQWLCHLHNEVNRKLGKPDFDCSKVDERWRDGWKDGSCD
# HNF4A DNA FP = change in binding of human HNF4 alpha to DNA; 0.3% of 360,000 active; HNF4a-FITC DNA binding, fluorescence polarization, 1 h; activity change, % at 10 µM; in the data active = activity change above about 30%, passing the limit was not always enough;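 also: controls were the assay level and a saturating level of protein; the project sought stronger binding though the title names inhibitors; some compounds called inactive have numbers as strong as hits; positive values seem to mean higher polarization but the record does not say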
# Target sequence (P41235 whole entry, looked up): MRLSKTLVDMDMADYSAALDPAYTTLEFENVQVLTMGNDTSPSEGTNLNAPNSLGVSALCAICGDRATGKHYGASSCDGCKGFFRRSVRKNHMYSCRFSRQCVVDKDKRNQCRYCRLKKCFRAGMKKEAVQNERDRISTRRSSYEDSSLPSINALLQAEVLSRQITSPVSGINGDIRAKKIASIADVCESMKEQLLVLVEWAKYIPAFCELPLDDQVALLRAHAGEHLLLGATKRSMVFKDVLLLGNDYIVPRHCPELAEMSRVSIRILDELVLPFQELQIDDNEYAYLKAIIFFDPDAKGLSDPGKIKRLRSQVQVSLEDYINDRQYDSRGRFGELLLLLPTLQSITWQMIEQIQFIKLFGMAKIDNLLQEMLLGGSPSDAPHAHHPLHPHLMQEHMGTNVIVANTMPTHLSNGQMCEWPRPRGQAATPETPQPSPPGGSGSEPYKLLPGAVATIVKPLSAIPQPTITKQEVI
# RanGTP-Imp inh = disruptors of Ran-importin-beta complex formation – biochemical, FRET, CFP-Ran, YFP-importin-beta, homogeneous, primary screen | inhibition, % (test concentration not listed) | 1.1% of 300,000 active | cell-free CFP-Ran/YFP-importin-beta FRET ratio;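 active = most replicates above 15%; inconclusive = exactly half above 15%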;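 also: 0% = DMSO wells and 100% = Ran loaded with GDP instead of GTP; wells of about 40 µL received 100 nL stock; the first replicate is given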
# LANA-H2A inh = blocks KSHV LANA binding to histone H2A/H2B; cell-free LANA-H2A/H2B peptide, fluorescence polarization; inhibition, % (concentration not given with the values); 0.6% of 320,000 active; AID 2629; in the data active = inhibition mostly above about 10%, no sharp cut-off; inactive = mostly below about 6.7%;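 also: stock transfer was 7.5 nL into about 10 µL; 0% = median of vehicle wells and 100% = median of positive control wells; one replicate is shown; the record names a cut of 25% in any replicate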
# Numbers without * were called inactive; ? = inconclusive; nt = no result given. Compounds were not picked by outcome. About 6.3% of those tested had a hit in this group.
# Value order: Calb FLC	B2AR ag	Vif A3G	ALR inh	HNF4A DNA FP	RanGTP-Imp inh	LANA-H2A inh
[1] O=C(CSc1nnnn1-c1ccc(F)cc1)Nc1ccccc1F
 : -2	8	nt	-9	2.2	1.6	-7.4
[2] Cc1cc(NC(=O)CSc2nccn2-c2cccc(F)c2)no1
 : nt	3	7%	-11	-3.9	nt	2.0
[3] COc1ccc(CCC(=O)Nc2nnc(C(F)(F)F)s2)cc1
 : -2	0	-8%	-2	-3.1	5.5	-0.4
[4] S=c1[nH]nc(-c2ccc3ccccc3n2)n1-c1ccccc1Cl
 : ?	8	nt	nt	-2.4	3.0	-1.9
[5] COc1ccc(CCNC(=O)CSC2=Nc3ccccc3C3=NC(C(C)C)C(=O)N23)cc1OC (centres undefined)
 : 49	4	16%	nt	1.4	-1.0	1.1
[6] Cc1c(/C=N/NC(=O)c2cc(C(C)(C)C)[nH]n2)c2ccccc2n1C
 : -3	-7	-4%	-11	0.1	-4.8	-4.5
[7] CC(=O)c1ccc(NC(=S)N2CCN(CCO)CC2)cc1
 : -49	-1	nt	-26	3.1	1.9	-2.4
[8] CC(=O)Nc1ccc(S(=O)(=O)N/N=C/c2cccnc2)cc1
 : 0	-1	-2%	-8	1.0	2.0	0.7
[9] O=C(COc1ccc(S(=O)(=O)Nc2ccccc2)cc1)N1CCOCC1
 : 4	-11	7%	-1	1.4	3.8	-1.7
[10] CCOc1cc(C2NC(=O)CCC2[N+](=O)[O-])cc(Br)c1OC (centres undefined)
 : 4	-4	-12%	5	3.5	1.5	-3.3
[11] CC(C)NC(=O)c1noc2cc([N+](=O)[O-])ccc12
 : 16	0	12%	-39	0.6	2.2	0.2
[12] O=C(CSc1n[nH]c(=O)n1-c1cccnc1)Nc1ccccc1Cl
 : 6	1	1%	-2	-0.5	-2.0	3.3
[13] Cc1ccc(C)c(SCC(=O)Nc2cccc(S(=O)(=O)N3CCOCC3)c2)c1
 : nt	14	6%	nt	-1.7	nt	nt
[14] CN(C)C(=O)CCc1ccc2c3c([nH]c2c1)[C@]1(CCc2ccccc2)[C@@H](C(=O)N2CCCCC2)C[C@H](CC(=O)NCCC2=CCCCC2)C(=O)N1CC3
 : nt	2	-8%	nt	-1.9	nt	nt
[15] O=C(c1cc(F)ccc1F)C1CCCN(Cc2cccn2-c2ccccn2)C1 (centres undefined)
 : -4	-5	nt	0	3.2	5.5	-2.0
[16] COc1ccc(C(=O)NNC(=O)CCCCC(=O)NNC(=O)c2ccc(OC)cc2)cc1
 : 18	2	1%	-11	0.3	-0.9	-1.3
[17] Cc1ccccc1CS(=O)(=O)CC1(O)CCN(C(=O)c2cccc(C(F)(F)F)c2)CC1
 : 3	6	2%	-18	3.1	1.7	0.1
[18] O=C(NC(Cc1c[nH]c2ccccc12)C(=O)NCc1ccc(F)cc1)OCc1ccccc1 (centres undefined)
 : -3	2	-8%	-2	0.1	-2.9	-16
[19] Cc1ccc2c(C)c(C(=O)N3CCN(Cc4ccccn4)CC3)oc2c1C
 : 3	-10	nt	8	2.2	6.6	-1.0
[20] Cc1[nH]ccc(=O)c1OCC(=O)O
 : -3	-3	-9%	-6	1.4	3.9	2.8
[21] CC(C)N(C(=S)Nc1cc(S(=O)(=O)N2CCOCC2)ccc1Cl)c1ccccc1
 : ?	14	nt	nt	0.9	2.5	nt
[22] COC(=O)Cn1nnc(-c2cccc(OC)c2)n1
 : -3	-4	-7%	-7	1.0	-2.4	-2.5
[23] C=CCn1c(SCc2ccc(Cl)cc2)nc2cc(C(=O)N3CCC(C(N)=O)CC3)ccc2c1=O
 : 5	6	-13%	nt	-2.9	1.3	nt
[24] COCCn1c(SCC(=O)Nc2cc(C)nn2-c2ccccc2)nnc1-c1ccncc1
 : 3	10	nt	-1	-1.6	-3.9	-2.7
[25] COC(=O)NNC(=O)C12CC3CC(CC(C3)C1)C2
 : 3	8	nt	-2	-2.4	2.5	7.4
[26] Cc1cccc(NS(=O)(=O)c2cccc(C(=O)N3CCN(S(=O)(=O)c4ccccc4)CC3)c2)c1
 : 4	1	8%	2	-0.1	nt	-3.2
[27] CC(C)CN(C(=O)COC(=O)C12CC3CC(CC(Cl)(C3)C1)C2)c1c(N)n(Cc2ccccc2)c(=O)[nH]c1=O
 : 11	-1	1%	nt	-0.5	1.1	-2.7
[28] Cc1cccc(N(C)c2cc(C)nc3nc(C)nn23)c1
 : -8	9	21%	nt	1.2	-6.3	4.4
[29] COc1ccc(C(=O)Nc2cc3c(cc2C#N)OCO3)cc1S(=O)(=O)NCc1ccco1
 : -9	6	2%	-1	0.2	1.9	4.6
[30] CC(=O)c1c(C)nc(-c2ccc(Cl)cc2Cl)n1O
 : 1	8	25%	2	1.3	0.2	1.2
[31] CSc1ccc(S(=O)(=O)N2CCC(C(=O)Nc3ccc(NC(C)=O)cc3)CC2)cc1
 : -9	-7	nt	-6	-1.1	1.7	0.4
[32] CCCCc1nc(NCCNC(=O)c2ccco2)c(C#N)c2c1CSC(C)(C)C2
 : nt	nt	31%	-10	nt	nt	-7.4
[33] COc1cccc(CN2CCN(S(=O)(=O)c3ccc(Br)cc3)CC2)c1
 : 9	3	3%	-4	-1.4	-1.6	0.5
[34] COc1ccc(N2C(=O)CSC23C(=O)N(CC(=O)NC2CCCC2)c2ccccc23)cc1 (centres undefined)
 : 0	-10	nt	0	10	0.9	2.6
[35] N#CCC(=O)N/N=C/c1ccc(N2N=C(c3ccccc3)CC2c2ccccc2)cc1 (centres undefined)
 : -17	-73	nt	nt	50*	99*	1.0
[36] Cn1ccc(C(=O)N/N=C/c2cccnc2)n1
 : -2	4	nt	1	1.1	2.6	-1.4
[37] CC(=O)Nc1c(-c2ccccc2)nc2ccc(Cl)cn12
 : -8	4	nt	12	-1.0	-3.0	1.0
[38] O=c1c2ccccc2nc2c3ccccc3c(NCc3cccnc3)nn12
 : 32	8	6%	-4	3.8	?	-1.4
[39] COc1ccc(N(CC(=O)Nc2cc(C)ccc2C)S(=O)(=O)c2ccccc2[N+](=O)[O-])c(OC)c1
 : 5	2	-3%	-14	-3.0	0.3	-6.0
[40] O=C(COc1ccc(C(=O)O)cc1)Nc1cccc(C(F)(F)F)c1
 : -19	-3	1%	0	0.9	-3.6	1.1
[41] Cn1cccc1C1CCCN1CC(=O)Nc1c(Cl)cc(Cl)cc1Cl (centres undefined)
 : nt	5	-9%	17	-0.2	nt	0.7
[42] O=C(CN1CCN(C(=O)c2ccccc2)CC1)Nc1cccc(S(=O)(=O)N2CCCC2)c1
 : nt	1	-8%	nt	-4.3	nt	nt
[43] O=C(N[C@@H](Cc1ccccc1)C(=O)N1CCC2(CC1)NCCc1[nH]cnc12)c1cccc(F)c1
 : -6	-1	nt	1	0.2	3.4	4.6
[44] O=S(=O)(c1ccc(Cl)nc1)N1CCN(Cc2ccc3c(c2)OCO3)CC1
 : 2	1	?	-1	-6.4	-2.1	0.3
[45] Cc1cc(=O)n2nc(N3CCCC(C(=O)NCCCN4CCc5ccccc5C4)C3)sc2n1 (centres undefined)
 : 1	3	-2%	nt	0.2	-4.5	nt
[46] COc1ccc(-n2nc3cc(C)c(N)cc3n2)cc1Cl
 : -14	13	1%	-1	4.1	1.4	0.1
[47] O=C(N/N=C/c1cc([N+](=O)[O-])ccc1N1CCCCCC1)c1ccccn1
 : -21	3	nt	-8	1.7	-0.8	-5.7
[48] COc1ccc(Nc2nccc(OC)c2C#N)cc1
 : -10	-2	-5%	-4	-4.0	2.1	-5.2
[49] N#CC1=C(N)NC(=S)C(C(N)=O)C1c1ccccc1F (centres undefined)
 : 0	-9	0%	84*	1.3	-3.1	-0.3
[50] Nc1nc(C(F)(F)F)c(Br)c(=O)n1N
 : -2	11	-1%	2	-1.4	-1.7	2.5
[51] COc1ccc(-c2[nH]ncc2CN2CCCN(C(=O)c3ccco3)CC2)cc1F
 : 3	0	28%	nt	4.1	0.5	-0.9
[52] COc1ccc(/C=C(\NC(=O)c2cccs2)C(=O)NN)cc1OC
 : 7	11	-2%	69	2.9	2.0	-2.1
[53] N#C/C(=C\c1cccnc1)C(=O)Nc1ccc(C(=O)O)cc1
 : -3	1	12%	54	2.6	3.5	-1.2
[54] Cc1ccsc1/C=N/NC(=O)c1ccncc1
 : 10	6	14%	nt	-2.9	0.4	0.0
[55] CCn1c(=O)cc(SCC(=O)NCCCN2CCN(c3ccc(F)cc3)CC2)c2ccccc21
 : 3	11	2%	96*	0.7	3.7	-2.6
[56] CCOC(=O)N1CCC(N2Cc3cccc(C(=O)NCc4ccc5c(c4)OCO5)c3C2=O)CC1
 : 1	5	15%	0	-5.4	-3.9	-1.2
[57] O=C(/C=C/c1ccc(Cl)c(Cl)c1)N1CCOCC1
 : -14	0	nt	1	0.9	-0.4	0.2
[58] CCOC(=O)c1cccc(N2C(=O)C3C4C=CC(CC4)C3C2=O)c1 (centres undefined)
 : 16	-8	nt	nt	4.3	1.3	-3.5
[59] COc1ccc(-n2[nH]c(C)cc2=O)cc1
 : -3	2	1%	32	-0.1	?	3.6
[60] COc1ccc(CCNC(=O)c2nc(-c3cccs3)no2)cc1OC
 : -2	-9	23%	-12	-5.2	11	-0.3
[61] COCCN1CCN(C(=O)c2cc(COc3ccc(F)c(F)c3)on2)CC1
 : ?	-8	nt	-4	0.8	0.1	-8.5
[62] O=c1oc2cc(OCc3c(F)cccc3Cl)ccc2cc1-c1ccccn1
 : -4	3	1%	-7	-1.0	-0.7	-1.3

# Arranged by count of non-hydrogen atoms (descending): 14 of the compounds above.
# Value order: Calb FLC	B2AR ag	Vif A3G	ALR inh	HNF4A DNA FP	RanGTP-Imp inh	LANA-H2A inh
[43] O=C(N[C@@H](Cc1ccccc1)C(=O)N1CCC2(CC1)NCCc1[nH]cnc12)c1cccc(F)c1
 : -6	-1	nt	1	0.2	3.4	4.6
[45] Cc1cc(=O)n2nc(N3CCCC(C(=O)NCCCN4CCc5ccccc5C4)C3)sc2n1 (centres undefined)
 : 1	3	-2%	nt	0.2	-4.5	nt
[42] O=C(CN1CCN(C(=O)c2ccccc2)CC1)Nc1cccc(S(=O)(=O)N2CCCC2)c1
 : nt	1	-8%	nt	-4.3	nt	nt
[31] CSc1ccc(S(=O)(=O)N2CCC(C(=O)Nc3ccc(NC(C)=O)cc3)CC2)cc1
 : -9	-7	nt	-6	-1.1	1.7	0.4
[51] COc1ccc(-c2[nH]ncc2CN2CCCN(C(=O)c3ccco3)CC2)cc1F
 : 3	0	28%	nt	4.1	0.5	-0.9
[61] COCCN1CCN(C(=O)c2cc(COc3ccc(F)c(F)c3)on2)CC1
 : ?	-8	nt	-4	0.8	0.1	-8.5
[44] O=S(=O)(c1ccc(Cl)nc1)N1CCN(Cc2ccc3c(c2)OCO3)CC1
 : 2	1	?	-1	-6.4	-2.1	0.3
[60] COc1ccc(CCNC(=O)c2nc(-c3cccs3)no2)cc1OC
 : -2	-9	23%	-12	-5.2	11	-0.3
[40] O=C(COc1ccc(C(=O)O)cc1)Nc1cccc(C(F)(F)F)c1
 : -19	-3	1%	0	0.9	-3.6	1.1
[53] N#C/C(=C\c1cccnc1)C(=O)Nc1ccc(C(=O)O)cc1
 : -3	1	12%	54	2.6	3.5	-1.2
[49] N#CC1=C(N)NC(=S)C(C(N)=O)C1c1ccccc1F (centres undefined)
 : 0	-9	0%	84*	1.3	-3.1	-0.3
[36] Cn1ccc(C(=O)N/N=C/c2cccnc2)n1
 : -2	4	nt	1	1.1	2.6	-1.4
[59] COc1ccc(-n2[nH]c(C)cc2=O)cc1
 : -3	2	1%	32	-0.1	?	3.6
[50] Nc1nc(C(F)(F)F)c(Br)c(=O)n1N
 : -2	11	-1%	2	-1.4	-1.7	2.5
